CDC25B-CDK2 inh = human CDC25B-CDK2/CyclinA binding inhibition | 94,000 tested, 0.72% active | HTRF CDC25B-CDK2/CyclinA binding, anti-His/anti-Flag; hits give high values | P30305+P24941 | z-score (test concentration not listed);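 also: score is relative to mean and SD of negative controls; strong numbers were not always called active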
HIV TAR-Tat = HIV-1 TAR-Tat binding disruption | HIV-1 TAR RNA, Tat peptide displacement FRET; hits give high values | z-score (test concentration not listed) | 100,000 tested, 0.6% active;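 also: score is relative to mean and SD of negative controls; some compounds called inactive have numbers as strong as hits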
* = called active by the depositor; · = no result given.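 The calls were made as follows: active = z-score from 3 up in half or more of its runs; inactive = the rest.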 Compounds as they come; any-hit rate near 0.87%.

Compound	CDC25B-CDK2 inh	HIV TAR-Tat
Cc1cccc(NC(c2ccccc2)c2nnc(-c3ccccc3)o2)c1 (stereo not drawn)	0.21	2.8
COc1cccc(/C=N/NC(=S)NC2CC3CCC2C3)c1O (stereo not drawn)	-0.82	·
COC(=O)c1ccccc1S(=O)(=O)N1CCN(c2ncccn2)CC1	-1.5	·
CC(=O)Nc1ccc(-n2cccc(C(=O)NCC(C)C)c2=O)cc1	·	2
CN(C)Cc1c(O)ccc2c(=O)c(-c3ccc(Cl)cc3)coc12	0.4	0.28
CCN1CCN(C2CCCCC2NS(=O)(=O)c2ccccc2)CC1 (stereo not drawn)	-1.2	2.3
O=c1oc2cc(S(=O)(=O)N3CCCC3)ccc2c2ccc(S(=O)(=O)N3CCCC3)cc12	0.38	3.4
CCOC(=O)Nc1ccc(S(=O)(=O)Nc2nc(C)cc(C)n2)cc1	-1.5	0.31
Cc1ccc2c(c1)C(O)(CC(=O)c1ccc3c(c1)CCCC3)C(=O)N2 (stereo not drawn)	-1.1	-0.91
CCOc1ccccc1-c1nn2c(C3COc4ccccc4O3)nnc2s1 (stereo not drawn)	-1.1	1.3
CCc1nc(Oc2cccnc2)c2oc3ccccc3c2n1	·	1.9
CCCCN(CC)CCNC(=O)c1ccc(N2CCc3ccccc32)s1	·	0.76
CCS(=O)(=O)N1CCC2(CC1)OC(=O)C(C)=C2C(=O)Nc1ccc(Br)cc1F	·	-0.08
O=[n+]1cc(-c2ccc(F)cc2)n([O-])c2c1CCC2	-0.88	·
CN(C)c1ncc(C(=O)Nc2ccc3c(c2)OCO3)cn1	·	1.1
CCc1ccc(S(=O)(=O)c2c[nH]c3ccc(CC)cc3c2=O)cc1	-1.3	0.52
Cc1ccnc(NS(=O)(=O)c2ccc(NC(=O)c3snnc3C)cc2)n1	-1.2	0.44
Cc1ccc(S(=O)(=O)Nc2ccc3ncccc3c2)cc1	0.39	·
CCNC(=O)c1c(NC(=O)c2cc(=O)c3cc(C)c(C)cc3o2)sc2c1CCCC2	-0.95	-0.16
O=C(O)c1ccc(CN2CC(=O)N3CSCC3C2=O)cc1 (stereo not drawn)	3.2	0.8
Clc1cccc(-n2cc(-c3ccccc3)c3c(NCC4CCCO4)ncnc32)c1 (stereo not drawn)	-0.82	·
Cn1c(SCC(=O)Nc2ccc3c(c2)OCCO3)nc2c([nH]c3ccccc32)c1=O	-1.2	·
CCn1cc2c(n1)-c1c(oc(C(=O)NCc3ccco3)c1C)CC2	·	1.8
Cc1ccc(S(=O)(=O)c2nc(S(C)(=O)=O)sc2NCCN(C)C)cc1	-0.8	-1.4
O=c1c(-c2ccccc2)c(N2CCC(Cc3ccccc3)CC2)c1=O	·	2

Compounds shown so far that contain a thiophene ring, fused or not (two):
Compound	CDC25B-CDK2 inh	HIV TAR-Tat
CCCCN(CC)CCNC(=O)c1ccc(N2CCc3ccccc32)s1	·	0.76
CCNC(=O)c1c(NC(=O)c2cc(=O)c3cc(C)c(C)cc3o2)sc2c1CCCC2	-0.95	-0.16

Continued.
Compound	CDC25B-CDK2 inh	HIV TAR-Tat
COc1ccc(NC(=O)C2=Cc3cc(Br)ccc3OC2)cc1	·	1.4
O=C(Cn1cnc(S(=O)(=O)N2CCCC2)c1)Nc1cccc(Br)c1	·	0.69
C=CCn1cc(C(=O)NCC2CCCO2)c(=O)c2cc(S(=O)(=O)N3CCCCCC3)ccc21 (stereo not drawn)	-0.22	·
COc1ccc(-c2csc(N)n2)cc1Br	-1.4	-0.76
CC(C)(C)S(=O)(=O)/C(C#N)=C/N/N=C/c1c(Cl)cccc1Cl	-0.49	·
Cc1ccc(NS(=O)(=O)c2ccc(-c3cnc(C4CC4)o3)cc2)cc1N(C)C	·	0.61
CCOc1ccc(C2c3c(oc4ccc(C)cc4c3=O)C(=O)N2c2ccccn2)cc1 (stereo not drawn)	-2.1	-0.55
CN(Cc1ccco1)C(CNS(=O)(=O)c1ccc(Cl)cc1)c1ccccc1 (stereo not drawn)	-1.5	1.2
CCCCOC(=O)C1=C(C)NC2=C(C(=O)CCC2)C1c1cc(Br)c(O)c(OCC)c1 (stereo not drawn)	-2.8	-1.2
CCN1CCN(C2=NS(=O)(=O)C(c3ccc(C)c(C)c3)=C2C)CC1	0.76	2.8
CCN(CC)CCn1c(C)c(C)c2c1ncn1nc(-c3ccccc3O)nc21	-1.6	0.27
CC(=O)Nc1sc(C)c(C)c1C(=O)NC(C)C	-1.6	0.67
CC(NC(=O)C(C)(C)C)c1nc(-c2ccc(C(C)(C)C)cc2)no1 (stereo not drawn)	-0.98	1.6
CCN(CCCNc1c(-c2ccc(C)cc2)c(=O)c1=O)Cc1ccccc1	·	2.2
CC(C)OCCCNC(=O)Cn1ncc2ccsc2c1=O	0.79	1.2
C=CCNc1nc2c(c(=O)n(C)c(=O)n2C)n1CCC(C)C	-1.1	0.51
C=CCN1C=C(OC(=O)c2ccccc2Cl)c2ccccc2S1(=O)=O	-0.72	1.4
CC1(C(=O)O)CCC(C(=O)Nc2cccc(F)c2)C1(C)C (stereo not drawn)	-2.2	·
Cc1cc(NC(c2ccccn2)c2ccc3cccnc3c2O)no1 (stereo not drawn)	·	1.6
Cc1cccn2c(=O)c(C(=O)NCc3ccccn3)cnc12	·	-0.25
CSc1cccc(N2C(=O)N(Cc3cccc(Cl)c3)C3CS(=O)(=O)CC32)c1 (stereo not drawn)	0.39	0.62
Cc1cc(C)nc(NC2=NCCN2C(=O)NC2CCCCC2)n1	-0.76	·
Cc1ccc(C2CC(=O)N3CN(c4ccc(CCO)cc4)CSC3=C2C#N)cc1 (stereo not drawn)	7.1*	-0.54
CCn1c(SCc2nc(-c3ccccc3C)no2)nnc1-c1ccccc1	-1.1	2.1
COc1ccc(OC)c(NS(=O)(=O)c2ccc(-c3cc(C)no3)s2)c1	·	0.16

For convenience, 2 of the compounds above.
Compound	CDC25B-CDK2 inh	HIV TAR-Tat
CC1(C(=O)O)CCC(C(=O)Nc2cccc(F)c2)C1(C)C (stereo not drawn)	-2.2	·
Cc1cc(NC(c2ccccn2)c2ccc3cccnc3c2O)no1 (stereo not drawn)	·	1.6

More results follow.
Compound	CDC25B-CDK2 inh	HIV TAR-Tat
COc1ccc(OC)c(NC(=S)N2CCN(c3ncc(C(F)(F)F)cc3Cl)CC2)c1	-2.4	·
O=C(O)C(Cc1c[nH]c2ccccc12)NS(=O)(=O)c1ccc([N+](=O)[O-])cc1 (stereo not drawn)	-1.2	·
NC(=O)C1CCN(c2c(S(=O)(=O)c3ccccc3)cnc3cc4c(cc23)OCCO4)CC1	-0.48	3
COc1cc(C2CC(=O)NC(SCc3ccccc3)=C2C#N)ccc1O (stereo not drawn)	-1.7	-0.12
COc1ccccc1-n1cnc2cc(Nc3nnc(C)c4ccccc34)ccc21	-3.1	2.1
O=C(c1cccc(F)c1)N1CCN(c2cc(=O)n3nc(-c4ccccc4)sc3n2)CC1	·	-1.3
O=C(O)c1cccc(N2C(=O)CC(Sc3ccccc3C(=O)O)C2=O)c1 (stereo not drawn)	-0.29	·
Cc1nn2c(=O)cc(COc3ccc(C(C)(C)C)cc3)nc2s1	-0.52	-1
O=S(=O)(c1ccc(Cl)c(Cl)c1)c1ccc(Cl)c(Cl)c1	-1.6	·
CC1c2cccn2CCN1C(=O)Nc1ccccc1Cl (stereo not drawn)	·	-5
CCOC(=O)C(N)CCCCN (stereo not drawn)	-1.6	·
Cc1ccc(C)c(CSc2ncc(CO)n2Cc2ccc(Cl)cc2)c1	·	0.94
N#Cc1c(NC(=O)COCc2cc(-c3ccco3)on2)sc2c1CCC2	·	1.9
O=C(c1cccnc1)N(c1ccc2oc(=O)sc2c1)S(=O)(=O)c1ccc(Cl)cc1	-0.75	0.7
CN1C(=O)c2cccc3c(S(=O)(=O)Nc4ccc(O)c(C(=O)O)c4)ccc1c23	-1.2	1.4
C#CCNS(=O)(=O)c1ccc(Cl)cc1	-0.34	·
Cc1cc(SCC(=O)Nc2c(C)n(C)n(-c3ccccc3)c2=O)nc(C)n1	0.73	-0.18
Cc1ccccc1-c1nnc(Cc2ccccc2Cl)o1	-1.4	3.7
CCCCc1nc(NCc2ccccc2)c(C#N)c2c1COC(C)(C)C2	-1.4	-0.4
COCCn1c(SCC(=O)Nc2cc(Cl)ccc2OC)nc2c(c1=O)SCC2	-2.4	-0.42
Clc1ccccc1-c1nnc(Cc2cc(Br)sc2Br)o1	-1.2	·
CN(C)c1ccc(-c2nc3c[n+](CC(N)=O)ccn3c2NC2CCCCC2)cc1	-3.6	-8.6
O=C(Nc1ccccc1F)c1cnn(-c2ccc(F)cc2)c1-n1cccc1	·	-0.32
Cc1ccc(CNc2cc(C)nc3nncn23)cc1	-2.2	2.7
CC1CN(S(=O)(=O)c2cccc(-c3cn4cccnc4n3)c2)CC(C)O1 (stereo not drawn)	0.16	1.3

Reformatted: three of the compounds above.
structure: CN1C(=O)c2cccc3c(S(=O)(=O)Nc4ccc(O)c(C(=O)O)c4)ccc1c23
  CDC25B-CDK2 inh: -1.2
  HIV TAR-Tat: 1.4
structure: O=C(O)c1cccc(N2C(=O)CC(Sc3ccccc3C(=O)O)C2=O)c1 (stereo not drawn)
  CDC25B-CDK2 inh: -0.29
  HIV TAR-Tat: ·
structure: CC1c2cccn2CCN1C(=O)Nc1ccccc1Cl (stereo not drawn)
  CDC25B-CDK2 inh: ·
  HIV TAR-Tat: -5

Following part.
Compound	CDC25B-CDK2 inh	HIV TAR-Tat
CC(C)Cn1c(NCc2ccco2)nc2c1c(=O)[nH]c(=O)n2C	-1.9	1.5
CN(C)c1ccc(Nc2nc3ccccc3n3nnnc23)cc1	3.3	0.39
Cc1ccc(S(=O)(=O)[C@H]2CS(=O)(=O)C[C@@H]2NCc2ccc(F)cc2)cc1	-0.22	-0.11
CCOC(=O)N1CCN(C(=O)c2cccn3c(=O)c4cc(Br)ccc4nc23)CC1	·	1.5
CCc1cccc(Nc2cc(C)nc3nc(-c4ccco4)nn23)c1	·	0.9
C=CCn1c(-c2ccccc2)n[nH]c1=S	-0.69	·
CC(C)NC(=O)CSc1cn(CC(=O)N(C(C)C)C(C)C)c2ccccc12	·	-0.66
Clc1ccc2c(c1)c(-c1ccccc1)nc1nnnn12	-0.48	0.84
CCC(=O)N1CCc2cc(Br)cc(S(=O)(=O)CCC(=O)NC3CCCCCC3)c21	-0.77	·
COc1ccc(OC)c(S(=O)(=O)n2nc(-c3ccc(Cl)cc3)cc2N)c1	-0.9	0.1
O=C1CCCC2=C1C(c1ccccc1)NC(=S)N2 (stereo not drawn)	0.8	·
Cc1[nH]nc(-c2ccc(S(=O)(=O)N3CCN(c4ccc(F)cc4)CC3)s2)c1C	·	0.04
COCCN(CCS(=O)(=O)N1CCNCC1)S(=O)(=O)c1ccc(Br)cc1	·	1.7
CCc1c(N2CCCCC2)nc2n(c1=O)CCCS2	-1.5	0.85
COc1ccc(-n2nnc(-c3nc(-c4ccc5c(c4)OCO5)no3)c2C)cc1Cl	·	0.45
O=c1cc(CN2CCCc3ccccc32)nc2sccn12	·	-6.7
Cc1cc(Nc2ccc(N3CCOCC3)cc2)n2nc(C)nc2n1	-2.2	0.94
CN(C)c1ccc(C2N(C)c3ccccc3N2C)cc1	-2	1.4
Cc1ccc(S(=O)(=O)Nc2ccc3oc(C)c(C(=O)O)c3c2)cc1	-1.6	·
COc1cc(NC(=O)c2ccccc2)c(C)cc1N	-1.8	·
Cc1ncc(Cl)c(N)c1Cl	-3.2	·
CC12CC(c3ccccc3O1)N(C(=O)c1cccs1)C(=O)N2c1ccccc1 (stereo not drawn)	-0.08	·
CN1CCN(c2nc3c(c(=O)[nH]c(=O)n3C)n2Cc2cccc(Br)c2)CC1	-0.16	·
CCOC(=O)c1cn[nH]c1S(=O)(=O)N1CCN(C(=O)OCC)CC1	·	1.2
COc1ccc(CNS(=O)(=O)c2ccc(CN3C(=O)c4cccnc4C3=O)s2)cc1	·	-0.36
CCOC(=O)c1sc2nc3c(cc2c1N)COC(C(C)C)C3 (stereo not drawn)	0.34	-0.59
O=C(c1oc(=O)c2ccccc2c1-c1ccccc1)N(Cc1ccco1)C1CCCCC1	-0.77	1.5
O=C(CSc1nnc(-c2cccnc2)n1-c1ccccc1)c1ccc(F)cc1	·	1.3
O=[N+]([O-])c1ccc(CSc2c(Cl)cncc2Cl)c(Cl)c1	-1.9	·
CCN1C(=O)c2cc(C(=O)NCCN3CCCC3)nn2CC1(C)C(=O)NC1CCCC1 (stereo not drawn)	·	0.22
CC(CS(=O)(=O)CC(C)N1CCCCC1)N1CCCCC1 (stereo not drawn)	-2	·
CC1CCCCC1NC(=O)CCC(=O)Nc1nc(-c2cc3ccccc3oc2=O)cs1 (stereo not drawn)	-0.91	·
OC(CSc1nc(-c2ccccc2)ns1)C(F)(F)F (stereo not drawn)	0.02	·
O=S(=O)(c1ccc(Br)cc1)c1nc(Cc2ccccc2)oc1N1CCOCC1	·	2.4
CCC(C)Nc1nc2c(cc1C#N)COC(C)(C)C2 (stereo not drawn)	-0.73	1.5

High-throughput results: PubChem BioAssay, Center for Chemical Genomics, University of Michigan
